Compound activity deposited in PubChem BioAssay by several laboratories.
PKD1 kinase inh: blocks activity of human protein kinase D1; PKD1 kinase fluorescence polarization assay; inhibition, %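 (about 10 µM by stock and volumes)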; 200,000 tested, 0.056% active; AID 797;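 active = inhibition of 50% or more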;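 note: controls were vehicle for no effect and a reference inhibitor for full effect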
Target sequence (Q15139 whole entry, looked up): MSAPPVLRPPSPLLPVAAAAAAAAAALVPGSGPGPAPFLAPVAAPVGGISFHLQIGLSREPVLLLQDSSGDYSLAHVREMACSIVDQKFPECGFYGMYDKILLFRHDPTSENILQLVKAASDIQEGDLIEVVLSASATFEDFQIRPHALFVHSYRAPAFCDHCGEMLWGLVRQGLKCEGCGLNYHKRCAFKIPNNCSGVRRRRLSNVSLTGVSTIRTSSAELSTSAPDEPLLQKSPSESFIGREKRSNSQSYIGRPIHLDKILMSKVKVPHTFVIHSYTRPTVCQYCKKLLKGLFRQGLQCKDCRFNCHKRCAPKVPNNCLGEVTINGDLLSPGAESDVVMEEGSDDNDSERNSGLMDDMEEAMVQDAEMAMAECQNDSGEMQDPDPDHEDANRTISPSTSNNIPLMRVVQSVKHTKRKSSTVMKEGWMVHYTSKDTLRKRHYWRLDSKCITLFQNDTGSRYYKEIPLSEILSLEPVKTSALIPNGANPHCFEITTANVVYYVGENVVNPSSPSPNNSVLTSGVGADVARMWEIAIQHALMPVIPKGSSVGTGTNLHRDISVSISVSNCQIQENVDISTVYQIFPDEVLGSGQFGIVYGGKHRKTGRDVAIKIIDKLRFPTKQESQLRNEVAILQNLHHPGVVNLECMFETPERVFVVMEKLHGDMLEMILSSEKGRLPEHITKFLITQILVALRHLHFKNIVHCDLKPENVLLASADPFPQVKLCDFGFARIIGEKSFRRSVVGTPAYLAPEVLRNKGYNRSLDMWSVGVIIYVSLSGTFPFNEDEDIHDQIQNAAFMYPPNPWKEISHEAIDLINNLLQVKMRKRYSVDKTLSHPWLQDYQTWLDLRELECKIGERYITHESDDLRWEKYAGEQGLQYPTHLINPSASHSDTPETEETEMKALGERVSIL
Insulin prom inh: TRM-6 insulin promoter activity inhibition; 130,000 tested, 0.9% active; inhibition, % at 2 µM; TRM-6 cells (human fetal islet line), insulin promoter-eGFP reporter, imaging; reporter expression induced with tamoxifen;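 active = inhibition above the mean plus 3 SD, with well images judged a real hit on visual review, cut at about 60% in these data, passing the limit was not always enough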
GALR2 agonist: agonists of human galanin receptor 2 (GALR2) | activation, %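 (tested at 5 µM)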 | O43603 | GALR2-expressing cells, agonist activation read-out | 140,000 tested, 0.48% active;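 active = above mean plus 3 SD of all compounds, about 5% in these data, not always enough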;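 note: 0% = vehicle buffer wells and 100% = reference agonist at full effect; tested in CHO reporter cells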
HSV replic up: increases HSV replication in cells; AID 1956; maximum fold increase; HSV replication augmentation in cells, fold increase; 220,000 tested, 0.005% active;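 active = peak rise of 1.5-fold or more in the series; tested in PC3 cells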;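 note: first round at 10 µM; read as green reporter fluorescence; hits show the peak of a series up to 25 µM; 1 = signal of infected wells without compound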
RGS16-Gao HTS: regulators of human RGS16-Galphao interaction; AID 1441; binding response (% of control), % at 10 µM; 220,000 tested, 0.38% active; O15492+P09471; bead-based flow cytometry RGS16-Galphao binding, fluorescence; actives lie on both sides;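 active = below 25% or above 175%, edge rows of some plates excepted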;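 note: Galphao activated by GDP with aluminum fluoride before binding; 100% = wells without compound and 0% = beads without RGS; some results beyond the cut were filed as inactive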
Insulin prom inh cell count: second read-out of Insulin prom inh, no call of its own (marks repeat the call); normalized cell count, %; measured here: cell count, toxicity; reference of the scale not given here;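 cells exposed to compound for 48 h; stained nuclei by imaging scaled within each plate; lower means fewer cells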
HSV replic up primary fold: also measured in HSV replic up; calls as there; fold increase; compound at 10 µM; measured here: primary screen fold increase 10 uM; tested in PC3 cells;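 GFP signal in the first replicate; 1 = infected wells without compound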
The depositor's hits bear a star; i = inactive; nt = not tested or not shown.

SMILES | PKD1 kinase inh | Insulin prom inh | Insulin prom inh cell count | GALR2 agonist | HSV replic up | HSV replic up primary fold | RGS16-Gao HTS
CCc1c(O)nc(SCC(=O)Nc2nc3ccccc3s2)n(C2CCCCC2)c1=O | nt | nt | nt | nt | i | 1 | 98
Cc1csc(NC(=O)CCCC(=O)O)c1-c1nc2ccccc2s1 | nt | nt | nt | nt | i | 0.92 | 96
COc1ccc(C(=O)NCC(=O)N/N=C/c2ccc([N+](=O)[O-])o2)cc1OC | nt | nt | nt | nt | i | 0.82 | 98
Cc1cc(Cl)c(S(=O)(=O)N2CCSCC2)cc1OCC(=O)NC1CCCCC1 | 2 | 33 | 84 | -2.0 | i | 0.88 | 99
CNC(=S)N1N=C(c2ccc(C)cc2)CC1c1cc(OC)ccc1OC (centres undefined) | -8 | nt | nt | nt | i | 0.91 | 102
CCO[C@H]1OC(C(=O)NCc2ccccc2)=C[C@@H](c2ccccc2)[C@@H]1CCCO | -1 | nt | nt | nt | i | 0.86 | 95
CC1Sc2ccccc2N(CC(=O)N(C(C)C)C(C)C)C1=O (centres undefined) | 6 | -11 | 82 | -1.1 | i | 0.97 | 104
N#CC1=C(N)OC2=C(C(=O)CCC2)C12CCC1(CC2)OCCO1 | 7 | -85 | 136 | -0.8 | i | 0.89 | 111
CCOC(=O)N1CCN(S(=O)(=O)c2ccc(C(=O)Nc3sc4c(c3C#N)CCC4)cc2)CC1 | 13 | nt | nt | -1.7 | nt | nt | 98
COc1ccccc1N1CC(C(=O)OCC(=O)c2ccc(F)cc2)CC1=O (centres undefined) | -14 | 50 | 85 | -1.6 | i | 0.89 | 103
CC1CC(C)CN(CCCNC(=O)Cc2c(C(=O)O)n(C)c3ccccc23)C1 (centres undefined) | -4 | 23 | 91 | -1.3 | i | 0.76 | 98
C/C(=N/NC(=O)CNc1ccc(Cl)cc1C)c1ccc(C)cc1 | 3 | 29 | 131 | nt | i | 1 | 99
CC(C)Oc1ccc(C2C(C#N)=C(N)Oc3c2oc(CO)cc3=O)cc1 (centres undefined) | 1 | nt | nt | nt | i | 1.5 | 99
CC(=O)Nc1cccc(/C(C)=N/NC(=O)c2cc(-c3ccncc3)nc3ccccc23)c1 | nt | nt | nt | nt | i | 0.96 | 100
CCOc1ccc2[nH]c(=O)c(CN(Cc3nnnn3Cc3ccccc3)CC3CCCO3)cc2c1 (centres undefined) | -15 | -10 | 48 | 0.5 | i | 0.67 | 100

One compound at a time (already shown). Screens in order: PKD1 kinase inh, Insulin prom inh, Insulin prom inh cell count, GALR2 agonist, HSV replic up, HSV replic up primary fold, RGS16-Gao HTS
CCOC(=O)N1CCN(S(=O)(=O)c2ccc(C(=O)Nc3sc4c(c3C#N)CCC4)cc2)CC1 in the list: 13, nt, nt, -1.7, nt, nt, 98
Cc1cc(Cl)c(S(=O)(=O)N2CCSCC2)cc1OCC(=O)NC1CCCCC1 in the list: 2, 33, 84, -2.0, i, 0.88, 99

Three entries out of the list, ordered by molecular weight, descending:
SMILES | PKD1 kinase inh | Insulin prom inh | Insulin prom inh cell count | GALR2 agonist | HSV replic up | HSV replic up primary fold | RGS16-Gao HTS
Cc1cc(Cl)c(S(=O)(=O)N2CCSCC2)cc1OCC(=O)NC1CCCCC1 | 2 | 33 | 84 | -2.0 | i | 0.88 | 99
COc1ccc(C(=O)NCC(=O)N/N=C/c2ccc([N+](=O)[O-])o2)cc1OC | nt | nt | nt | nt | i | 0.82 | 98
C/C(=N/NC(=O)CNc1ccc(Cl)cc1C)c1ccc(C)cc1 | 3 | 29 | 131 | nt | i | 1 | 99

The list continues:
SMILES | PKD1 kinase inh | Insulin prom inh | Insulin prom inh cell count | GALR2 agonist | HSV replic up | HSV replic up primary fold | RGS16-Gao HTS
c1ccc2[nH]c(-c3cscn3)nc2c1 | 2 | 67* | 152* | -1.4 | nt | nt | 101
CNC(=O)/C(=C\c1ccc2c(c1)OCO2)NC(=O)c1ccc(Br)cc1 | -4 | 19 | 54 | -0.4 | i | 1 | 71
O=C(O)CCCNS(=O)(=O)c1cccs1 | 7 | nt | nt | -2.6 | i | 0.92 | 103
COC(=O)c1sccc1NC(=O)CSc1ccccc1NS(=O)(=O)c1ccc(Cl)cc1 | 1 | 53 | 74 | -1.0 | i | 0.92 | 102
OCCNC(=S)c1ccccc1 | nt | nt | nt | nt | i | 1.1 | 97
O=C(Nc1cccc([N+](=O)[O-])c1)c1[nH]ncc1Cl | 2 | 17 | 167 | -1.2 | i | 0.85 | 47
COc1ccc(CNC(=O)CCn2c(=O)oc3ccccc32)cc1 | -3 | 6 | 77 | -1.0 | i | 1 | 107
CCOP(=O)(c1ccc(N(C)C)cc1)C(O)c1ccccc1OC (centres undefined) | -12 | 25 | 93 | -1.1 | i | 0.93 | 102
C=CCn1c2ccccc2c2nnc(SCC(=O)Nc3c(C)n(C)n(-c4ccccc4)c3=O)nc21 | -5 | -64 | 94 | -1.8 | i | 1 | 99
CC12CNCC(C)(CN(C3(O)C(=O)Nc4ccc(Br)cc43)C1)C2=O (centres undefined) | 6 | -7 | 90 | nt | i | 1.1 | 100
COc1cc(NC(=O)c2ccc3c(c2)OCCO3)ccc1NC(=O)c1cccs1 | 4 | -107 | 124 | nt | i | 0.87 | 114
NC(=O)NCc1ccccc1F | -4 | nt | nt | nt | i | 0.98 | 104
COC(=O)c1sccc1OCc1cccc(OC)c1 | 0 | nt | nt | nt | i | 0.95 | 103
CCC(c1nnc(SCC(=O)NCC2CCCO2)n1Cc1ccccc1)N(C)C (centres undefined) | 6 | 14 | 50 | -0.9 | nt | nt | nt
CC(=O)Nc1ccc2nc(NC(=O)COc3ccccc3Cl)sc2c1 | -1 | -42 | 128 | nt | i | 0.91 | 105
CCn1c(SCC(=O)Nc2cccc(C)n2)nc2c1c(=O)n(C)c(=O)n2C | -1 | nt | nt | nt | i | 0.96 | 91
Nc1c(C(=O)O)sc2nc(-c3ccccc3)cc(-c3ccc(F)cc3)c12 | nt | nt | nt | nt | i | 1.2 | 103
CC(C)n1c(N2CCN(C(=O)Nc3ccccc3)CC2)nc2ccccc21 | -5 | 54 | 75 | -1.1 | i | 1 | 115
COc1ccc2nc(C)cc(C(=O)O)c2c1 | -4 | nt | nt | -0.4 | i | 1 | 98
O=C(Cc1ccc([N+](=O)[O-])cc1)Nc1nnc(C2CC2)s1 | 8 | -2 | 143 | -0.2 | i | 0.81 | 102
CCC(C)c1ccc(NC(=O)COC(=O)c2nc3nccc(C)n3n2)cc1 (centres undefined) | 5 | 53 | 103 | nt | i | 1.1 | 91
CCOC(=O)c1ccc(NC(=O)c2nc[nH]c2C(=O)N(CC)CC)cc1 | nt | nt | nt | nt | i | 0.94 | 100
O=C(CN1CCc2ccccc2C1)NCC(=O)Nc1ccc(F)cc1 | -9 | nt | nt | nt | i | 0.89 | 98
O=C(O)CNC(=S)N(Cc1ccccc1)Cc1cccnc1 | 2 | nt | nt | nt | i | 0.58 | 99
COc1ccc(Cl)cc1NC(=O)Nc1ccccc1SC | 2 | nt | nt | nt | i | 1 | 96
COc1ccc(S(=O)(=O)N2CCC(C(=O)N3CCOCC3)CC2)cc1OC | -13 | nt | nt | -3.2 | i | 0.71 | 101
CCCC(=O)OCC(=O)Nc1ccccc1Sc1ccccc1 | -10 | nt | nt | -1.3 | i | 0.99 | 99
O=C1CCC/C1=C\c1ccccc1 | -3 | -25 | 167 | nt | i | 0.99 | 99
Cc1c(Br)cc(-c2nnco2)cc1Br | 12 | 27 | 80 | -0.6 | i | 0.93 | 100
Cc1cccc(C)c1N1C(=O)C2ON(c3ccccc3)C(c3ccncc3)C2C1=O (centres undefined) | -7 | nt | nt | -1.3 | i | 0.92 | 101
CC(=O)OC(COc1cccc(C)c1)Cn1cnc2ccccc21 (centres undefined) | 5 | -407 | 64 | nt | i | 1 | 114
Cc1ccc(C2C(C#N)=C(N)Oc3cc4c(cc32)OCO4)cc1 (centres undefined) | 6 | 45 | 99 | -0.5 | i | 1 | 94
COc1ccc(-c2nc3ccccc3c(=O)n2CCCn2ccnc2)cc1 | -9 | -12 | 115 | -0.2 | i | 0.94 | 93
CC(=O)NC1C(=O)N=C(SCC(=O)NCc2ccccc2)NC1=O (centres undefined) | 10 | -381 | 50 | -1.4 | i | 0.99 | 98
CCCN1CCC(=O)N([C@H](CSc2ccc(OC)cc2)CC(C)C)CC1 | nt | nt | nt | nt | i | 0.88 | 99
COc1cc(NC2=CC(=O)CC(C)(C)C2)cc(OC)c1OC | 1 | 8 | 90 | -1.4 | i | 0.92 | 99
FC(F)(F)c1ccc(NC2=NCCC2)cc1 | -6 | -35 | 98 | nt | i | 1.1 | 106
Cc1c(NC(=O)Cn2cnc3c(=O)n(C)c(=O)n(C)c32)cccc1-c1nc2ccccc2o1 | -3 | -34 | 113 | -0.4 | nt | nt | nt
Cc1onc(-c2ccccc2Cl)c1C(=O)Nc1ccc(CN2CCCC2)cc1 | -4 | 14 | 52 | -1.3 | i | 0.96 | 99
O=C(NCc1ccccn1)C1CCC(CNS(=O)(=O)c2cccc3nsnc23)CC1 (centres undefined) | nt | nt | nt | nt | i | 1.1 | 98
CC1(C)Cc2c(C#N)c(N)n(-c3ccccc3)c(=S)c2CO1 | nt | nt | nt | nt | i | 0.98 | 110
O=C(Nn1c(-c2ccc(Br)cc2)nc2ccccc2c1=O)c1ccc([N+](=O)[O-])cc1 | -9 | 0 | 133 | 0.1 | i | 0.83 | 103
COc1ccc2[nH]c(=O)c(CN(CCO)C(=O)c3cccs3)cc2c1 | -4 | 40 | 78 | -3.0 | i | 1.2 | 103
CCCc1ccc(Oc2cn[nH]c2-c2ccc(O)cc2O)cc1 | -1 | -4 | 89 | -2.6 | i | 0.94 | 103
C=CCNC(=O)c1ccc(S(=O)(=O)CC)c(Cl)c1Cl | -8 | 35 | 116 | nt | i | 1.1 | 98
CN1C(=O)/C(=C\c2ccccc2)Sc2ccc(C(=O)N3CCN(c4ccccn4)CC3)cc21 | -1 | -39 | 75 | -1.8 | i | 1.1 | 109
CCOc1c2ccc(C(=O)NCCc3cccs3)cc2nn1CC | -4 | nt | nt | -3.1 | i | 0.76 | 101
CN(Cc1cccc(Cl)c1Cl)c1ccc(S(=O)(=O)N2CCCCC2)cc1[N+](=O)[O-] | 1 | 18 | 61 | -0.7 | i | 1.1 | 101
CSc1cc(-c2ccccc2)[nH]c(=O)c1C#N | -6 | nt | nt | nt | i | 0.97 | 100
COc1cc2[nH]c(=O)n3nc(-c4ccccc4)nc3c2cc1OC | -7 | 30 | 63 | 0.5 | i | 1.1 | 100
CCOC(=O)Cn1c(CN2CCN(c3cccc(Cl)c3)CC2)nc2c1c(=O)[nH]c(=O)n2C | 3 | nt | nt | 0.1 | i | 0.84 | 102
COc1ccc(NC(=S)Nc2ccc3snnc3c2)cc1 | 2 | nt | nt | nt | i | 0.96 | 111
O=C(COc1ncnc2ccccc12)NCCCN1CCCC1=O | -12 | nt | nt | -0.5 | i | 0.97 | 100
COc1ccc(N2C(=O)CC(N(CCc3ccc(S(N)(=O)=O)cc3)C(=S)Nc3ccccc3)C2=O)cc1 (centres undefined) | nt | nt | nt | nt | i | 0.94 | 90
CCOC(=O)c1c(C)oc2ccc(O)c(CN3CCCCC3)c12 | 3 | -5 | 148 | -1.2 | i | 1 | 88
CC(C)(C)NC(=S)NNC(=O)[C@H]1C[C@@H]1c1ccccc1 | nt | nt | nt | nt | i | 0.91 | 79
C/C(=N\Nc1cccc([N+](=O)[O-])c1)c1ccccc1O | 11 | nt | nt | nt | i | 0.84 | 99
COc1ccccc1C(=O)N/N=C/c1cnc2ccccc2n1 | -9 | -62 | 122 | -1.3 | i | 0.96 | 112
CCN(CC)S(=O)(=O)c1cccc(C(=O)N/N=C/c2ccc(O)c(O)c2O)c1 | -5 | 41 | 87 | -1.5 | i | 1.3 | -61
CC1(C)CC2(CCO1)N1CC3(C)CN2CC(C)(C1)C3=O (centres undefined) | 3 | 73 | 108 | -1.1 | i | 0.93 | nt

Next part:
SMILES | PKD1 kinase inh | Insulin prom inh | Insulin prom inh cell count | GALR2 agonist | HSV replic up | HSV replic up primary fold | RGS16-Gao HTS
O=C(Nc1ccc2c(c1)OCCO2)c1ccc(CN2CCOCC2)cc1 | -9 | -20 | 113 | -1.9 | i | 1.1 | 111
CCC12CN(C(=O)c3ccc([N+](=O)[O-])cc3)CC(CC)(CN(C(=O)c3ccc([N+](=O)[O-])cc3)C1)C2=O | nt | nt | nt | nt | i | 0.98 | 93
O=C(Nc1ccccc1)Nc1nncs1 | -1 | 0 | 127 | -1.1 | i | 0.81 | 86
C1CN(CC2CCN(c3nc4nonc4nc3N3CCSCC3)CC2)CCO1 | -7 | nt | nt | nt | i | 0.94 | 91
